High-throughput results from PubChem.
Rango dissoc inh: inhibitors of RanGTP-induced Rango-importin beta complex dissociation. Biochemical FRET Rango-importin beta, RanGTP-induced dissociation. Potency, µM (series often up to 46.1 µM), for the others: top-dose activity change, negative = inhibition. AID 540253. 0.071% of 340,000 active. O95149+P62826; active means falling FRET ratio curve, often poorly fitted, with flat reads before Ran was added; inconclusive means other falling curves, or compound fluorescence or quenching; inactive means flat or rising ratio curve;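 further: potency means the concentration at half of the fitted maximal effect; % of control where 0% means no effect; nearly all actives have a fitted effect of over 45% in size; -100% = wells without RanGTP and RCC1; the record marks most hits as doubtful in a second field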
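Two FRET readings bracket the reaction: one 5 min after compound meets Rango–importin beta, another 45 min after RanGTP-RCC1 (0.6 uM Ran, 0.2 uM RCC1, 2 mM GTP) is added. Only the second defines inhibition.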
GLA inh pH 4.5: inhibitors of human alpha-galactosidase A at pH 4.5 | P06280 | purified enzyme, 4-MU-alpha-Gal fluorescence, pH 4.5 | activity change, negative = inhibition, % at 105 µM | 230,000 tested, under 10 active | AID 1467; inconclusive = small, poorly fitted or top-dose-only inhibition, or a rising curve; inactive = flat fitted curve, though single readings scatter; no compound was filed as active;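 further: 0% = full activity with enzyme and -100% = basal without enzyme; dose as in the result columns while the protocol names 77 µM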
Target sequence (P06280 whole entry, looked up): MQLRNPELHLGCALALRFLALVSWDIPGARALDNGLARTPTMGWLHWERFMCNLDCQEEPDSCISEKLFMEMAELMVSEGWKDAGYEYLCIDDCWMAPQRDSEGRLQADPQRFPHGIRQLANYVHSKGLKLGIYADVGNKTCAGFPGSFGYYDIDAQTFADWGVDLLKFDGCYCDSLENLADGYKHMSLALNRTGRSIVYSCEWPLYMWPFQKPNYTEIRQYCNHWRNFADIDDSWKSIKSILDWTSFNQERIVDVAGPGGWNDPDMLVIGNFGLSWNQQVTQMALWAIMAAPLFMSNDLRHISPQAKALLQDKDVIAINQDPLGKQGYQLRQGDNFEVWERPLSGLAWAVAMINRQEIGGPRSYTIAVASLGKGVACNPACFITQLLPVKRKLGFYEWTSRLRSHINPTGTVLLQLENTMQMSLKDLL
miR-21 reporter: miR-21 reporter, rising signal | HeLa miR-21 FLuc reporter, luciferase, 48 h | Potency, µM (series often up to 38.3 µM), without a hit: at the top dose reporter change, positive = more light | 340,000 tested, under 10 active | AID 2288; active = well fitted rising curve with a large enough effect; inconclusive = small, poorly fitted or top-dose-only effect; inactive = no such curve, though single readings can be large or run the other way;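 further: % of control where 0% means no effect; miR-21 action dims this reporter so a rising signal means less miR-21 action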
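Luminescence from a firefly luciferase reporter carrying a miR-21 binding site downstream, stably expressed under a CMV promoter in HeLa cells that make miR-21 endogenously, reports miRNA modulation after 48 h compound exposure up to approximately 40uM final.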
Rango complex inh: prevents formation of the Rango-importin beta complex | Rango CFP/YFP FRET sensor + importin beta, 45 min | Q14974 | AID 540263 | Potency, µM (top dose mostly 92.2 µM), for the others: at the highest dose inhibition of complex formation | 0.031% of 340,000 active; active = rising FRET ratio curve, often small or poorly fitted; inconclusive = mostly compound fluorescence or quenching in the first reads; inactive = flat curves in all reads;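 further: potency means the concentration at half of the fitted maximal effect; 0% = DMSO wells and 100% = buffer wells lacking importin beta; nearly all actives have a fitted effect of over 15% in size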
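FRET biosensor (snurportin 1 IBB flanked by EYFP and cerulean), 50 nM, with compound 5 min, then 0.125 microM importin beta in PBS, 1 mM DTT, 0.02% Tween-20, 0.1% BSA. CFP/YFP ratio read after 45 min at room temperature; pre-read flags interference.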
* = called active by the depositor; ? = inconclusive; . = no result given; & = joins results of further samples. Some of the compounds tested; rates above refer to the full screens.

SMILES	miR-21 reporter	GLA inh pH 4.5	Rango complex inh	Rango dissoc inh
CCN(CC)C(=O)CSc1nc(-c2ccc(C)cc2)nc2c1COC(C)(C)C2	-17%	9	0.1%	-3%
COc1cc(C(=O)N2CCN(c3ccccc3O)CC2)ccc1OCC(=O)N1CCOCC1	.	.	-3.6%	14%
CC1=NN(C(C)C)C(=O)C1	0%	2	-0.7%	3%
CCN(CC)C(=O)CCNS(=O)(=O)c1ccc(C)cc1	-3%	2	0.5%	10%
CCN1CCN(C(=O)c2cc3c(s2)-c2c(C)cccc2OC3)CC1	-58%	.	-5.2%	-6%
O=C(Nc1ccccc1)Nc1cccc2cccnc12	-31%	0	?	2%
COc1ccccc1-c1coc2cc(OCC(=O)OCc3ccccc3)ccc2c1=O	2%	-2	3.1%	-13%
CCN(CC)S(=O)(=O)c1ccc2c(c1)N(CC(=O)N1CCC(C(N)=O)CC1)C(=O)CO2	2%	.	0.4%	12%
O=C(CCn1cnnn1)Nc1cccc(F)c1	4%	-13	-2.2%	-4%
CC1CCCC/C1=N\NC(=S)NCCc1ccccc1 (centres undefined)	-6%	3	-2.3%	-3%
CC1CCCCN1CC(=O)Nc1ccccc1Sc1ccccc1 (centres undefined)	-9%	6	-0.4%	24%
COc1ccc(C(=O)CSc2ccc(-c3ccccc3)nn2)cc1	-16%	5	1.2%	-17%
O=C1C2CCCCC2C(=O)N1c1ccc(NC2CCCCC2)c([N+](=O)[O-])c1 (centres undefined)	-6%	0	?	1%
Cc1nonc1OCCNC(=O)C12CC3CC(CC(C3)C1)C2	-7%	0	5.5%	-15%
NCCNc1ccc([N+](=O)[O-])cc1	-11%	?	0.4%	9%
COc1cccc(NC(=O)COC(=O)c2ccccc2F)c1	0%	-5	7.7%	0%
Cc1cnc(NC(=O)c2ccc(Cl)nc2)s1	-45%	.	-0.1%	-5%
CCOC(=O)C1(Cc2cccc(OC)c2)CCN(Cc2cccn2-c2ccccn2)CC1	15%	-1	-0.2%	31%
COc1ccc(NS(=O)(=O)c2cc(NC(=O)c3ccc(=O)[nH]c3)ccc2C)cc1	.	.	1.4%	17%
CC(C)Cc1nc(N2CCN(C(=O)Cc3ccccc3)CC2)c(C#N)c2c1COC(C)(C)C2	-3%	4	.	.

Remaining list, next part
SMILES	miR-21 reporter	GLA inh pH 4.5	Rango complex inh	Rango dissoc inh
O=C(COC(=O)/C=C/c1ccco1)Nc1ncc(C(F)(F)F)cc1Cl	-5%	-8	0.8%	-25%
CCOc1ccc(CCNC(=O)CCC(=O)c2cccs2)cc1OCC	.	.	0.7%	3%
Cc1ccc(NC(=O)C2CCN(C(=O)c3cccs3)CC2)c(C)c1	2%	.	-2.5%	-16%
CCOc1ccc2nc(SCC(=O)NCc3ccc(OC)cc3)[nH]c2c1	-1%	.	2.0%	-7%
Cc1ccc(Cl)cc1NC(=O)CC1NC2CCCCC2NC1=O (centres undefined)	0%	1	-0.9%	-5%
O=C(c1cc(-c2ccco2)on1)N1CCN(C(c2ccccc2)c2ccccc2)CC1	0%	9	-6.4%	17%
COC(=O)c1ccc(NC(=S)NC(=O)c2cccnc2)cc1	-1%	.	1.7%	-5%
CCCN(C(=O)COC(=O)c1nc2nccc(C)n2n1)C1CCS(=O)(=O)C1 (centres undefined)	.	.	3.2%	17%
Cc1ccc(OCCN(C)C(=O)C2CCC(=O)N(Cc3ccccc3F)C2)cc1 (centres undefined)	1%	.	0.5%	-18%
Cc1[nH]n(-c2ccccc2)c(=O)c1/C=N/NC(=O)c1ccc(O)cc1O	-24%	.	-3.0%	-6%
O=C(Oc1ccc(/C=N/NC(=O)c2ccccc2F)cc1)c1ccccc1	-15%	.	0.4%	-1%
c1ccc(-c2sc3ccccc3c2-c2ccc(OCCN3CCOCC3)cc2)cc1	.	.	2.8%	-10%
COc1ccc(OCC(=O)N/N=C/c2ccsc2)cc1	-6%	-1	2.2%	2%
ClC(=C\c1ccccc1)/C=N/N1CCN(c2ccccn2)CC1	-35%	8	0.3%	0%
CCN(CC)c1nc(Nc2ccccc2)nc(Oc2ccc(=O)[nH]n2)n1	-8%	-25	6.0%	14%
O=C(CCc1ccc(S(=O)(=O)N2CCOCC2)cc1)N1CCN(Cc2ccc3c(c2)OCO3)CC1	9%	8	-1.5%	0%
O=C(Nc1ccc(NC(=O)c2ccc3c(c2)OCO3)cc1)c1cccc(Cl)c1	.	.	1.4%	-8%
CCn1c(SCC(=O)Nc2ccc(N3CCOCC3)cc2)nnc1C1CC1	.	.	4.0%	8%
CCOc1ccc(C(=O)N2CCN=C2SC)cc1OCC	-12%	3	0.6%	2%
COc1ccc(N2CCN(S(=O)(=O)c3ccc(OC)c(C(=O)N4CCCCC4)c3)CC2)cc1	4%	.	-2.3%	8%

(more compounds)
SMILES	miR-21 reporter	GLA inh pH 4.5	Rango complex inh	Rango dissoc inh
O=C(Nc1ccccc1Cc1ccccc1)c1oc2ccccc2c1COc1ccccc1	-3%	-1	-8.6%	2%
Nc1cc(C2CCCC2)nn1-c1ccccc1	-41%	6	-2.0%	-3%
Cc1c(Cl)cccc1N=Cc1ccc([N+](=O)[O-])s1	?	-23	-2.3%	-3%
COC(=O)c1nnn(-c2nonc2N)c1CN1CCc2ccccc21	16%	5	-1.6%	11%
COc1cccc(C2c3c(oc4ccccc4c3=O)C(=O)N2CCCN2CCOCC2)c1 (centres undefined)	-19%	-15	-1.5%	4%
COc1ccc(N2CCC(CNC(=O)Nc3ccc(Cl)cc3)C2)cc1 (centres undefined)	2%	-16	-1.6%	3%
CC(C)(C)OC(=O)C[C@@H]1C/C=C\C[C@@H](CC(=O)N[C@@H](CO)Cc2ccccc2)C(=O)N2CCC[C@@H]2COC1=O	.	.	-1.1%	15%
O=C(COC(=O)CNC(=O)c1ccccc1F)Nc1ccc2c(c1)OCCO2	-9%	-2	-3.0%	1%
COc1cc(/C=N/NC(=O)c2ccc(O)cc2)ccc1OCC(=O)Nc1cccc([N+](=O)[O-])c1	-15%	.	-0.6%	11%
COC(=O)c1cccc(-n2c(C)cc(C=O)c2C)c1	6%	2	6.6%	1%
CCC1(C(=O)OC)CCc2c(cc(OC)c3ccccc23)C1=O (centres undefined)	3%	-13	-0.3%	-13%
C[C@@H](CN1C(=O)C(=O)NC[C@@H]1Cc1ccc(O)cc1)NC(=O)Cc1ccccc1	1%	.	4.3%	9%
COCCN1C(=O)c2[nH]nc(-c3ccccc3O)c2C1c1ccc(OC)cc1 (centres undefined)	-14%	-10	0.0%	-1%
CCn1c(CSc2nc3ccccc3s2)nc2ccccc21	-15%	0	-4.5%	9%
O=C(Nc1cccc(NC(=O)c2cccs2)c1)c1ccc(F)cc1	1%	.	-4.4%	40%
COc1cc(NC(=O)c2cc(S(=O)(=O)N3CCc4ccccc43)cn2C)cc(OC)c1OC	12%&-10%	.	0.0%	2%
CC(O)CNC(=O)Cc1cc(=O)[nH]c(=O)[nH]1 (centres undefined)	4%	-5	?	-21%
CC1(C)SC2c3ccccc3C(=O)N2[C@@H]1C(=O)O (some centres undefined)	0%	.	-1.7%	-7%
C=C(C)C(=O)Nc1cccc(C2=NOC3(C2)C[C@@H](C(N)=O)N(C(=O)/C=C/C=C/C)C3)c1 (some centres undefined)	-1%	-3	-6.7%	2%
N#Cc1ccc(N2CCN(C(=O)c3cccc(F)c3)CC2)c(F)c1	-8%	1	-3.2%	7%

(continued)
SMILES	miR-21 reporter	GLA inh pH 4.5	Rango complex inh	Rango dissoc inh
Cc1ccnc(SCCn2c(N3CCN(c4ccccc4)CC3)nc3c2c(=O)[nH]c(=O)n3C)n1	7%	1	1.4%	-1%
O=C(NC1CC1)c1ccc2c(c1)N(Cc1ccc(Cl)cc1)CCS2	18%	.	-2.5%	17%
COc1ccccc1CNC(=O)c1cccc(S(=O)(=O)N2CCN(C)CC2)c1	-4%	-4	?	?
CCn1c(C(=O)NCCCN2CCc3ccccc3C2)cc2sccc21	0%	-3	0.7%	0%
O=C(NCCCn1ccnc1)c1ccc(OCC(F)(F)F)cc1	-3%	.	-0.2%	2%
CN(C)/C=C/c1[nH]c(=O)[nH]c(=O)c1[N+](=O)[O-]	5%	-8	-0.8%	0%
CCc1nc2ccccc2n1CC(C)C(=O)O (centres undefined)	-5%	-7	-0.3%	1%
Cc1ccccc1N=C1C(=O)Nc2ccccc21	.	.	1.7%	-15%
Cc1cc(CNC(=O)COc2ccc(C#N)cc2)c2ccccc2n1	-4%	3	-0.2%	4%
CCOC(=O)C(=CNCC(=O)OC)C(=O)OCC	-8%	-8	3.5%	0%
CCOc1ccc(-n2c(Cc3cc(=O)[nH]c(=O)[nH]3)nnc2SCC(=O)NC2CCCC2)cc1	0%	4	0.0%	-6%
Cc1ccc(S(=O)(=O)NCCC(=O)N2CCN(c3cccc(Cl)c3)CC2)cc1C	10%	.	1.2%	4%
CC(C(=O)Nc1ccc2c(c1)OCO2)N1CCC(N2CCCCC2)CC1 (centres undefined)	.	.	-2.5%	29%
O=C1CCC(C(=O)N2CCN(c3ccccc3Cl)CC2)CN1CC1CCCCC1 (centres undefined)	1%	.	0.4%	1%
COC(=O)c1oc2ccccc2c1-n1cccc1	8%	-3	0.8%	5%
O=C(NCc1ccccc1)C(=O)NCC1OCCN1S(=O)(=O)c1ccc([N+](=O)[O-])cc1 (centres undefined)	0%	-1	-0.4%	0%
COc1ccc(CN2CCNC(=O)C2CC(=O)NCc2cn[nH]c2-c2ccccc2)c(F)c1 (centres undefined)	-4%	.	-0.6%	10%
Cc1ccc(NC(=S)N(Cc2cccs2)Cc2cc3cc(C)ccc3[nH]c2=O)cc1	0%	-9	-3.2%	30%
CCc1ccc(OCC(=O)Nc2ccc3[nH]ncc3c2)cc1	7%	.	-0.3%	9%
CN(C)c1nc(N)nc(Cn2nnc(-c3ccc(C(F)(F)F)cc3)n2)n1	0%	2	0.0%	-22%

Following part:
SMILES	miR-21 reporter	GLA inh pH 4.5	Rango complex inh	Rango dissoc inh
Oc1ccccc1C=NC(c1ccccc1)C(O)c1ccccc1 (centres undefined)	-3%	3	-1.7%	-7%
Oc1c(CN2CCc3ccccc3C2)cc(Cl)c2cccnc12	23%	-18	?	?
Cc1cc(C)cc(NC(=O)CCN2C(=O)c3ccccc3S2(=O)=O)c1	-7%	.	-0.4%	-18%
CN1CCN(C(=O)/C(=C\c2ccc3c(c2)OCO3)NC(=O)c2cccs2)CC1	-1%	1	1.9%	1%
CN(C)c1ncc(S(=O)(=O)c2ccccc2)c(=O)[nH]1	4%	.	-1.6%	-1%
O=C(NCCNC(=O)c1cc(OCC(F)(F)F)ccc1OCC(F)(F)F)Nc1ccc(OC(F)(F)F)cc1	-4%	-8	?	7%
CCCNC(=O)c1ccc(CN2CCc3ccccc3C2)cc1	-6%	4	7.8%	7%
COCCNC(=S)Nc1ccc2nc(N3CCOCC3)cc(C)c2c1	-11%	.	1.2%	-1%
